Assay outcomes as filed in PubChem.
GCN5L2 inh – qHTS Assay for Inhibitors of GCN5L2. GCN5L2 HAT assay, ThioGlo1 CoA-SH fluorescence. Potency, µM (doses to about 58.9 µM), inactives show at the highest dose activity change, negative = inhibition, hits mostly inhibitors. 390,000 compounds, 0.21% hits; active means well fitted inhibition curve with a large enough effect; inconclusive means small, poorly fitted or top-dose-only effect, or another doubt; inactive means no such curve, though single readings can be large or run the other way
Target sequence (Q92830 whole entry, looked up): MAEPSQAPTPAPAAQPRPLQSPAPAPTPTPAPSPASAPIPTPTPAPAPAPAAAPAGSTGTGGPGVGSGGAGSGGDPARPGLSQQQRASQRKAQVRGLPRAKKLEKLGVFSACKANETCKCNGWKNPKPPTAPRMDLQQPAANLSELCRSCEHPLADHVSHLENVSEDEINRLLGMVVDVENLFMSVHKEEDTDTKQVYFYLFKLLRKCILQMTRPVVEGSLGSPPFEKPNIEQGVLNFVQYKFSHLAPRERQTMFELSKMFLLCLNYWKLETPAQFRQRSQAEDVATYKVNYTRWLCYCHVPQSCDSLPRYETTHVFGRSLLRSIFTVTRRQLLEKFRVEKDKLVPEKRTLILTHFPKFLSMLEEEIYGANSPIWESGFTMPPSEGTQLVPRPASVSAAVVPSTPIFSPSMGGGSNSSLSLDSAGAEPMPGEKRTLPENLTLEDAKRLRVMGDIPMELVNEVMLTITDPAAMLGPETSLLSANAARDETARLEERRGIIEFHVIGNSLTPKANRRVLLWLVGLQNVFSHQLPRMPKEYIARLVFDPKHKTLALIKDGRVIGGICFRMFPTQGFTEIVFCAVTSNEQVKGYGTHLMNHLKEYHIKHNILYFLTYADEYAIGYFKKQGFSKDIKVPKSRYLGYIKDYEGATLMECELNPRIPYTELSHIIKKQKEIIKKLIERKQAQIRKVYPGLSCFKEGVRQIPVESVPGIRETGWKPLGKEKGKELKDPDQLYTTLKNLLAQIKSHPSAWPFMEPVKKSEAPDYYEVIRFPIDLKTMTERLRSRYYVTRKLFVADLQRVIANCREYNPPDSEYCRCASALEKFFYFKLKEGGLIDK
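Compounds, pin-transferred from DMSO stocks, meet 20nM GCN5L2 for 15 min before the reaction begins with H3(1-25) peptide (75uM) and acetyl-CoA (70uM). Thiol-reactive ThioGlo1 reports CoA release over 20 min at room temperature.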
An asterisk follows results filed as active; & = joins results of further samples. On the % scale 0 is the no-effect control and ±100 the full control effect; potency means the concentration at half of the fitted maximal effect. Some of the compounds tested, and most or all hits are left out here.

Screening C=CCNC(=O)CN(c1cc(Cl)ccc1OC)S(=O)(=O)c1ccc(C)c([N+](=O)[O-])c1 returned GCN5L2 inh -6%.
`O=C1CCCC/C1=C\Nc1ccc(Cl)cn1` gave GCN5L2 inh -4%.
For N#Cc1cc([N+](=O)[O-])ccc1N1CCN(c2ccccc2O)CC1 the results were GCN5L2 inh -9%.
`CSc1ccccc1OCc1cc(C(=O)NC(C)CCn2cccn2)no1` (configuration not stated) gave GCN5L2 inh inconclusive.
Cc1ccc(C(=O)N/C(=C\c2ccccc2)C(=O)NCCCn2ccnc2)cc1 was read as GCN5L2 inh 0%.
Cc1sc2ncnc(SCC(=O)N3CCC(c4noc5ccc(F)cc45)CC3)c2c1C was read as GCN5L2 inh 0%.
For CCc1ccc(N(C(=O)CNC(=O)c2ccco2)C(C(=O)NCC2CCCO2)c2ccccc2)cc1 (configuration not stated) the results were GCN5L2 inh 2%.
Screening CCOC(=O)c1c(C)[nH]c(=S)c(C#N)c1-c1ccc(OC)cc1 returned GCN5L2 inh -26%.
For Cc1cc(=S)[nH]c2c(C)cccc12 the results were GCN5L2 inh -1%.
For CCCCn1c(=S)[nH]c2ccccc2c1=O the results were GCN5L2 inh -4%.
`Cc1c(C(=O)N2CCc3ccccc3C2)oc2ccc(S(=O)(=O)N3CC(C)CC(C)C3)cc12` (configuration not stated) gave GCN5L2 inh -8%.
Screening Cc1sc(NC(=O)C2CSC3(C)CCC(=O)N23)nc1-c1ccccc1 (configuration not stated) returned GCN5L2 inh -4%.
`CCn1c(SCC(=O)n2c(C)c(C)c3ccccc32)nnc1-c1ccco1` gave GCN5L2 inh -4%.
`Cc1c(C(=O)Nc2c(F)cccc2F)sc2ncn(Cc3ccccc3F)c(=O)c12` gave GCN5L2 inh -3%.
C=CCSc1nc(C)c(CCCC)c(=O)[nH]1 was read as GCN5L2 inh -17%.
For O=C1C2CC=C(Cl)CC2C(=O)N1CC1OCCc2ccccc21 (configuration not stated) the results were GCN5L2 inh -7%.
For N=c1c(C(=O)NCC2CCCO2)cc2c(=O)n3ccccc3nc2n1Cc1ccc(F)cc1 (configuration not stated) the results were GCN5L2 inh -4%.
CCN(CC)CCC(C)OC(c1ccccc1)c1ccccc1 (configuration not stated) was read as GCN5L2 inh -4%.
`Cc1ccc(C(=O)C2=C(O)C(=O)N(CCCn3ccnc3)C2c2ccc(OC(C)C)cc2)o1` (configuration not stated) gave GCN5L2 inh inconclusive.
For O=C(COC(=O)c1ccccn1)Nc1cccc(Cl)c1 the results were GCN5L2 inh 0%.
CC(C)(C)c1ccc(C(=O)N2CCN(Cc3ccccc3)CC2)cc1 was read as GCN5L2 inh -3%.
Cc1noc(C)c1COC(=O)C1CCN(C(=O)c2ccc(Cl)cc2)CC1 was read as GCN5L2 inh -8%.
O=C(Cn1cnc2c(OCc3ccccc3)ncnc21)NCCCN1CCCC1=O was read as GCN5L2 inh -3%.
Screening CCc1noc(C)c1C(=O)Nc1nc(-c2cc(C)ccc2C)c(C)s1 returned GCN5L2 inh 11%.
Screening COc1ccc(CN2CCNC(=O)C2CC(=O)NCCc2nc(C)c3c(n2)CCC3)cc1C (configuration not stated) returned GCN5L2 inh -1%.
COc1ccc(NC(=O)C2CCCN2S(=O)(=O)c2cccc3nsnc23)c(OC)c1 (configuration not stated) was read as GCN5L2 inh -9%.
CCOC(=O)C1CCCN(C(=O)/C=C/c2ccc(OC)cc2)C1 (configuration not stated) was read as GCN5L2 inh -6%.
For CCN1C(=O)c2ccccc2S(=O)c2ccc(C(=O)NCc3ccc(Cl)cc3)cc21 (configuration not stated) the results were GCN5L2 inh -6%.
`O=C(NCCCc1ccccc1)c1ccc2c(c1)sc1nc(-c3ccc(F)cc3)cn12` gave GCN5L2 inh 3%.
CCC(C)C(=O)Nc1nc(C)c(-c2csc(Nc3ccccc3OC)n2)s1 (configuration not stated) was read as GCN5L2 inh -7%.
c1ccc(CCNc2nc(-c3cccnc3)cs2)cc1 was read as GCN5L2 inh 0%.
`Cc1onc(-c2ccccc2Cl)c1C(=O)Nc1nnc(Cc2ccc(Cl)cc2)s1` gave GCN5L2 inh -12%.
`O=C(Cn1cc2c(n1)CCCCC2)NC1CCN(Cc2ccccc2)CC1` gave GCN5L2 inh 2%.
Screening Cc1nn(C)c(C)c1S(=O)(=O)NCc1cccs1 returned GCN5L2 inh -5%.
Screening O=C(O)[C@@H]1CCCN1 returned GCN5L2 inh -7%.
For Cc1cccc(OCC(O)CN2C(C)(C)CC(O)CC2(C)C)c1C (configuration not stated) the results were GCN5L2 inh -1%.
`Cc1ccc2nc(-c3cccs3)c(Nc3ccc4c(c3)OCCO4)n2c1` gave GCN5L2 inh 5%.
O=C(Nc1ccccn1)c1cc(-c2cccc(Cl)c2)nc2ccccc12 was read as GCN5L2 inh 2%.
For O=C(CCNC(=O)c1ccc([N+](=O)[O-])cc1)NCc1ccco1 the results were GCN5L2 inh 3%.
Screening O=S(=O)(c1ccc(Oc2ccc(S(=O)(=O)N(CCO)CCO)cc2)cc1)N(CCO)CCO returned GCN5L2 inh 3%.
`O=C(O)CCCC(=O)N1N=C(c2ccccc2)CC1c1ccc2nccnc2c1` (configuration not stated) gave GCN5L2 inh 4%.
For C=CCN1C(=O)c2ccc(C(=O)N3CCN(S(=O)(=O)c4cccc(Cl)c4)CC3)cc2C1=O the results were GCN5L2 inh -19%.
Screening Cc1cccc(NC(=O)CCCNC(=O)c2ccc(Cl)cc2)n1 returned GCN5L2 inh -1%.
For Cc1nn(-c2ccccc2Cl)c(Cl)c1/C=C(\C#N)C(N)=O the results were GCN5L2 inh -6%.
For COc1cc(/C=C2\SC(=O)N(CCN)C2=O)ccc1OS(=O)(=O)c1cc(C)ccc1C the results were GCN5L2 inh -3%.
Screening O=S(=O)(Cc1cc(-c2ccc(Cl)cc2)no1)c1ccccc1 returned GCN5L2 inh -11%.
For CC[N+](CC)(CCCCS(=O)(=O)[O-])CCNP1(=O)C=C(c2ccccc2)OC(c2ccccc2)=C1 the results were GCN5L2 inh -4%.
`COc1ccc2c(c1)-c1c(sn(-c3ccc(OC)c(OC)c3)c1=S)C(C)(C)N2` gave GCN5L2 inh 3%.
`CCOC(=O)C(NC(=O)c1ccccc1)=C1C=C(C)OC(C)=C1` gave GCN5L2 inh -5%.
COc1ccc(CCCC(=O)N/N=C/c2ccc(C)cc2)cc1 was read as GCN5L2 inh -6%.
Screening COC(=O)c1sccc1-n1cccc1C(=O)C(=O)N1CCOCC1 returned GCN5L2 inh -2%.
`O=C(Nc1ccccc1-c1nc2ccccc2s1)c1cccnc1` gave GCN5L2 inh -16%.
For COc1ccc(NC2=C(Cl)C(=O)N(CCc3ccccc3)C2=O)c(OC)c1 the results were GCN5L2 inh -8%.
For CCCCOc1ccccc1NC(=O)Cn1c(-c2nonc2N)nc2ccccc21 the results were GCN5L2 inh -1%.
Cc1occc1C(=O)Nc1nnc(C2CCCCC2)s1 was read as GCN5L2 inh -3%.
O=C(CNC(=O)c1ccccc1F)N/N=C\C=C\c1ccccc1 was read as GCN5L2 inh -3%.
`Cc1ccc(-n2nnc3c(=O)n(Cc4cc(C)ccc4C)cnc32)cc1` gave GCN5L2 inh -4%.
Screening CCN(c1ccccc1)S(=O)(=O)c1ccc(C(=O)Nc2nccs2)cc1 returned GCN5L2 inh -4%.
For COC(=O)c1c(C)c(C)nc(N)c1C#N the results were GCN5L2 inh inconclusive.
Screening O=C(O)c1ccccc1CSc1ccccn1 returned GCN5L2 inh -5%.
`CCSc1ccccc1C(=O)Nc1nncs1` gave GCN5L2 inh -16%.
Screening Cc1ccc(NC(=O)COc2cccc3c2OC(C)(C)C3)c(O)c1 returned GCN5L2 inh -3%.
Cc1ccc(C)c(NC(=O)C2CC(=O)N(C3CCCCC3)C2)c1 (configuration not stated) was read as GCN5L2 inh -1%.
For O=S(=O)(c1cc(Cl)cc(Cl)c1)N1CCCC1c1nc2ccccc2s1 (configuration not stated) the results were GCN5L2 inh -4%.
`COc1cccc2c1Oc1nc(-c3ccccc3)nc(SCC(=O)Nc3ccccc3)c1C2` gave GCN5L2 inh 1%.
Screening CS(=O)(=O)Nc1cccc(C2=NN(S(C)(=O)=O)C(c3ccc4c(c3)OCO4)C2)c1 (configuration not stated) returned GCN5L2 inh -2%.
Screening O=C(NC1CCCC1)c1ccc(COCC(F)(F)F)o1 returned GCN5L2 inh 3%.
Screening Cc1noc(C)c1Cc1ccc(O)cc1 returned GCN5L2 inh inconclusive.
`C/C(=N/NC(=O)Nc1ccccc1)c1ccc(C)cc1` gave GCN5L2 inh -1%.
`N#C/C(=C\c1ccc(O)c([N+](=O)[O-])c1)C(=O)NCc1ccccc1` gave GCN5L2 inh -10%.
CC(Nc1cc(=O)n(C)c(=O)n1C)c1ccccc1 (configuration not stated) was read as GCN5L2 inh 0%.
For COCCNC(=O)c1onc(CSc2ccccc2)c1C(=O)O the results were GCN5L2 inh -6%.
Screening Cc1cc(C)cc(N2CCCC2=O)c1 returned GCN5L2 inh -2%.
Screening CNC(=O)NC(=O)CSc1nc2sccc2c(=O)n1-c1ccccc1 returned GCN5L2 inh -7%.
COc1cccc(OCCn2c(C)c(/C=N/n3cnnc3)c3ccccc32)c1 was read as GCN5L2 inh -6%.
For NC(=S)Nc1c(Cl)cccc1Cl the results were GCN5L2 inh 0%.
For O=C(NCc1ccccc1)c1cnc2sc(N3CCCC3)nn2c1=O the results were GCN5L2 inh -5%.
`CC1Cc2cc(S(=O)(=O)CCC(=O)Nc3ccc(Cl)cc3F)ccc2N1C(=O)C1CC1` (configuration not stated) gave GCN5L2 inh 4%.
Screening CCc1ccc2[nH]c(=O)c(CN(CCCN3CCOCC3)C(=O)Nc3ccc(Cl)cc3)cc2c1 returned GCN5L2 inh -3%.
`Cc1ccc(F)cc1NC(=O)CCc1c(C)nn(-c2ccc(N3CCCCC3)nn2)c1C` gave GCN5L2 inh -2%&-5%.
COc1cc2c(cc1OC)C(COc1ccc3c(C)cc(=O)oc3c1)N(C(=O)CC(C)C)CC2 (configuration not stated) was read as GCN5L2 inh 0%.
`CCc1ccc(-n2nc(CO)c(C(=O)NCCc3ccccc3)n2)cc1` gave GCN5L2 inh -4%.
`NS(=O)(=O)c1ccc(N/N=C/C=C/c2ccccc2[N+](=O)[O-])cc1` gave GCN5L2 inh -9%.
For CC1CC(=O)C=C(O)C1C(=O)OC(C)(C)C (configuration not stated) the results were GCN5L2 inh 4%.
c1ccc(CCc2nc(-c3ccccn3)no2)cc1 was read as GCN5L2 inh 2%.
`CCCC(=O)Nc1cc(-c2nc3ncccc3o2)ccc1Cl` gave GCN5L2 inh -9%.
O=C(Cn1nc(C(F)(F)F)c2c1CCCC2)Nc1ccc(Cl)cc1 was read as GCN5L2 inh -5%.
COc1cccc(CNC(=O)Cc2c(C(=O)O)[nH]c3ccccc23)c1 was read as GCN5L2 inh -5%.
CC1CCCN(CCCNC(=O)C2CC(=O)N(c3ccc(F)c(Cl)c3)C2)C1 (configuration not stated) was read as GCN5L2 inh -1%.
Screening C=CCNC(=S)NNC(=O)c1ccc(OCCC)cc1 returned GCN5L2 inh -1%.
Screening CC(=O)OCC1OC(Nc2cccc(C)c2)C(OC(C)=O)C(OC(C)=O)C1OC(C)=O (configuration not stated) returned GCN5L2 inh 4%.
Screening COc1ccc(N2CCn3c2nc2c3c(=O)n(CCCc3ccccc3)c(=O)n2C)c(OC)c1 returned GCN5L2 inh -12%.
`CCOC(=O)C1(Cc2ccccc2Cl)CCN(S(C)(=O)=O)CC1` gave GCN5L2 inh -1%.
CC(C)(C)C(=O)Nc1cc(C(F)(F)F)ccc1N1CCOCC1 was read as GCN5L2 inh -3%.
For CS(=O)(=O)Nc1ccc(C(=O)Nc2ccccc2Cl)cc1 the results were GCN5L2 inh -4%.
For COc1cc(/C=N/NC(=O)c2ccoc2C)ccc1OCCN1CCCCC1 the results were GCN5L2 inh -8%.
CCOCC(=O)OCC(=O)Nc1cc(OC)c([N+](=O)[O-])cc1C was read as GCN5L2 inh -5%.
COc1ccc(CC(=O)Nc2cccc(-c3ccc4nnc(C)n4n3)c2)cc1 was read as GCN5L2 inh -14%.
